# Six1-Eya2 inh: qHTS Assay for Inhibitors of the Six1/Eya2 Interaction; AlphaScreen GST-Six1/His-Eya2 binding, biochemical; stronger effect = lower value; control for the full effect not named in the record; actives 0.56% (n = 360,000); activity change, % (test concentration not listed); AID 651725, 2012; Homeobox protein SIX1 (Homo sapiens) + Protein phosphatase EYA2 (Homo sapiens), …; in the data active = activity change below about -65%; inconclusive = about -30% to -65%; inactive = above about -30%; note: % is set by controls: 0 for no effect and ±100 for the full control effect; compound concentration not given in the record
#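 AlphaScreen luminescence read after one hour at 37 °C in darkness. Pin-transferred compounds met GST-Six1 and His-Eya2 protein (5X stock 250 nM/500 nM) plus glutathione donor and Ni-chelate acceptor beads (5X, 50 ug/mL).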
# D2 agonist: Beta-Arrestin HTS for Positive Allosteric Modulators of the Human D2 Dopamine Receptor: Agonists; D(2) dopamine receptor (Homo sapiens), P14416; DiscoveRx PathHunter D2 beta-arrestin, luminescence, 90 min; 100% = 57 uM dopamine signal; activation, % (test concentration not listed); actives 0.084% (n = 360,000); in the data active = activation above about 40%; inconclusive = about 15% to 40%; inactive = below about 15%; note: compound concentration not given in the record; the text of the record calls up to 30% inactive
# Target sequence (P14416 whole entry, looked up): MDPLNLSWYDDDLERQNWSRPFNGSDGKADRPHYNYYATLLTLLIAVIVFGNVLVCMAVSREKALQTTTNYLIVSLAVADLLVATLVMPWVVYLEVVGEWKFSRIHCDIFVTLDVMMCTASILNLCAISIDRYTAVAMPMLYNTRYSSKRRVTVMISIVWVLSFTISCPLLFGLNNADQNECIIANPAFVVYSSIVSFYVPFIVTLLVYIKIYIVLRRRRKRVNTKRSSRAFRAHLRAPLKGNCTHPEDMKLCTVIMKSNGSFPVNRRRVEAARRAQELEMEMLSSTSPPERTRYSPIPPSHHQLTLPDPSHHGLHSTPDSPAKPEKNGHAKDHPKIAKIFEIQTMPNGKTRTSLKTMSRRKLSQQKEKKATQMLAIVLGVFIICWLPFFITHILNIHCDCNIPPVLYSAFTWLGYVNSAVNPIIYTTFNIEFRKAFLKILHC
#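 Agonist mode: compounds alone added to overnight-plated D2 PathHunter cells for 90 min at 37 C, with 57 uM final dopamine (EC100) defining full response. Beta-arrestin recruitment detected by chemiluminescent reagent, read after 1 h at ambient temperature.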
# PINK1 expr mod: A Quantitative High throughput Screen to Identify Chemical Modulators of PINK1 Expression; PINK1 immunofluorescence, high-content cytometry, 24 h; Potency, µM (doses to about 76.6 µM), for inactives: at the top dose activation (PINK1 increase), hits mostly activators; actives 0.2% (n = 410,000); AID 624263, 2012; active = well fitted activation curve with a large enough effect; inconclusive = small, poorly fitted or top-dose-only effect; inactive = flat fitted curve, though single readings scatter; cell line not stated here;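 note: potency is the fitted concentration of half-maximal effect; % of control where 0% means no effect; nearly all actives have a fitted effect of over 65% in size; a mitochondrial uncoupler was the plate control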
#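 Fluorescence from anti-PINK1 antibody, together with nuclear and cell stains, was scanned on a laser-scanning cytometer. Before staining, stable-line cells were incubated 24 hours with compounds at 5 concentrations; primary antibody 12 h at 10 degrees C.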
# TRPML1 agonist: qHTS for Agonists of the Human Mucolipin Transient Receptor Potential 1 (TRPML1). Mucolipin-1 (Homo sapiens), Q9GZU1. AID 624414, 2012. actives 0.12% (n = 410,000). TRPML1-expressing cells, Ca2+ dye fluorescence, FDSS; host cell line not named in the record; reference of the full effect not given here. activation, % (test concentration not listed); in the data active = activation above about 50%; inconclusive = about 30% to 50%; inactive = below about 30%; note: 0% is about no effect; the text of the record puts the active cut at 80%
# Target sequence (Q9GZU1 whole entry, looked up): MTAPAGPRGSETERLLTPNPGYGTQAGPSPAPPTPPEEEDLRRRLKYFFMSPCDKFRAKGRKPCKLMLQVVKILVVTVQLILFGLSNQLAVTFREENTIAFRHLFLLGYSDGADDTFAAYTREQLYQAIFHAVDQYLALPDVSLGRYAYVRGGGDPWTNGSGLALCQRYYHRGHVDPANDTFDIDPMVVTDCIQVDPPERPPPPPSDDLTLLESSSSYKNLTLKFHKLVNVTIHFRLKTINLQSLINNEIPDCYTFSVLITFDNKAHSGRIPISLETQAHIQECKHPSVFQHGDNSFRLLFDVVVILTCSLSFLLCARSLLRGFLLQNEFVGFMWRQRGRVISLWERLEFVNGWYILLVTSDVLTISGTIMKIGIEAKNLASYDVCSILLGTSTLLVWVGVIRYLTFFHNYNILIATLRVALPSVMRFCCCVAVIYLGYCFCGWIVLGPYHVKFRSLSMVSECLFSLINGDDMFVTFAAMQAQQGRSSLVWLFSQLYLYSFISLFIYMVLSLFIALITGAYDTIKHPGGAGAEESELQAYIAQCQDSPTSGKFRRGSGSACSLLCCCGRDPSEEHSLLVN
#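 Tetracycline-induced TRPML1-DL cells are seeded and incubated overnight before loading with a no-wash Ca2+ dye and quencher. Agonist activity is taken from the 110 s fluorescence read following compound pin-transfer on an FDSS, before EC80 54-4 challenge.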
# D2 PAM: Beta-Arrestin HTS for Positive Allosteric Modulators of the Human D2 Dopamine Receptor: Potentiators | D(2) dopamine receptor (Homo sapiens), P14416 | DiscoveRx D2 beta-arrestin cells, luminescence, 90 min; 100% = 57 uM dopamine signal | actives 0.23% (n = 360,000) | potentiation, % (concentration not given with the values); active = potentiation of 50% or more; inconclusive = 30% to 50%; inactive = 30% or less;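 note: compound concentration not given in the record; tested on top of an EC20 dose of dopamine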
#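 PathHunter beta-arrestin assay in DiscoveRx D2 cells. Compounds were added with an EC20 of dopamine (50 nM final) for 90 min at 37 deg C. Luminescence was read 1 h after detection reagent, with 57 uM dopamine as the EC100 control.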
# TRPML1 inh: qHTS for Inhibitors of the Human Mucolipin Transient Receptor Potential 1 (TRPML1); actives 0.02% (n = 390,000); AID 624415, 2012; activity change, negative = inhibition, % (no concentration beside the values); TRPML1-inducible cells, Ca2+ dye fluorescence, FDSS; stronger effect = lower value; inhibition of EC80 agonist-evoked calcium signal; in the data active means activity change below about -50%; inconclusive means about -30% to -50%; inactive means above about -30%;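 note: stimulus is agonist 54-4 at its EC80 concentration; % is set by controls: 0 for no effect and ±100 for the full control effect; compound concentration not given in the record; the text of the record puts the active cut at -80%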
#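 TRPML1-DL cells, Tet-induced overnight (~16 h, 37 °C) at 1,500 cells/well, were loaded with Ca8 no-wash dye plus quencher for 45-90 min at room temperature. Compounds were pinned during FDSS kinetic reading; agonist 54-4 at EC80 (4 uM final) then added.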
# An asterisk follows results filed as active; u = inconclusive; x = not tested or not shown.
item	SMILES	Six1-Eya2 inh	D2 agonist	PINK1 expr mod	TRPML1 agonist	D2 PAM	TRPML1 inh
1	Cc1cc(=O)oc2c(C)c(OCC(=O)NCCc3ccc(S(N)(=O)=O)cc3)ccc12	5.1	-2.0	-0.2%	0.2	-13.2	-14.2
2	CCOCCCn1cc(C(=O)c2cc(Br)ccc2O)cc(C#N)c1=O	-3.4	-0.7	3.6%	1.0	-0.6	40.5
3	Cc1ccc2c(c1)C(=NC1CCCCC1)c1cc3ccccc3nc1-2	-16.1	-6.9	12.2%	-0.5	-21.4	-10.6
4	CCN(CC)S(=O)(=O)c1ccc(C)c(NC(=O)COC(=O)[C@@H]2CCCN2C(=O)c2cccs2)c1	0.5	4.9	-1.3%	0.9	-6.8	-7.7
5	CCCN(CC(=O)Nc1cc(Cl)ccc1Cl)C(=O)c1ccccc1SCC(=O)N1CCCC1	6.0	-3.4	-0.3%	1.0	-12.1	13.8
6	Cc1cc(Nc2ccccc2)nc(N2CCN(C(=O)c3ccc4c(c3)OCO4)CC2)n1	5.8	-1.5	11.1%	0.4	-20.1	1.9
7	CCOc1cc(N2CCOCC2)c(OCC)cc1NC(=O)Cc1ccc(OC)c(OC)c1	-11.5	8.9	1.1%	-0.4	20.6	-17.1
8	Cc1cc(N)n2nc(-c3ccc(C(C)(C)C)cc3)cc2n1	5.1	-1.2	1.2%	-0.4	-0.5	-8.0
9	COc1ccc(N2CCN(CCNS(=O)(=O)c3cccc4nsnc34)CC2)cc1	-8.1	-2.4	-0.3%	-0.7	-4.3	3.6
10	CC1(C(=O)NCC2CCCCC2)CCN1C(=O)Cc1ccc(-c2ccccc2)cc1 (stereo not given)	-5.9	8.5	3.8%	-0.3	-2.6	x
11	CNc1nc(C)c(C(C)=O)cc1C#N	0.8	0.7	-0.6%	0.1	-8.0	-3.0
12	O=C(Cc1ccc(Cl)cc1)N1CCN(c2ccccc2)CC1	-1.2	-2.6	-0.3%	0.0	-9.7	-10.2
13	Cc1ccc(-c2ccc(C(=O)O)[nH]2)cc1	-3.4	0.3	-4.3%	-1.1	-6.8	-7.0
14	O=C(Nc1ccccc1)N1CCC(O)(c2cccc(C(F)(F)F)c2)CC1	-11.5	3.8	0.3%	0.0	-6.7	3.1
15	COCCNC(=O)c1cc2cc(Cl)cc(Cl)c2oc1=O	7.5	-0.9	2.4%	-0.7	-5.5	-4.0
16	Cc1cc(S(=O)(=O)Nc2cccc([N+](=O)[O-])c2)c(C)s1	-16.9	-6.3	3.9%	x	-4.2	x
17	c1ccc(-c2cn(C[C@H]3CC[C@@H]([C@@H]4CC[C@H](Cn5cc(-c6ccccn6)nn5)O4)O3)nn2)nc1	-87.4*	-3.0	1.3%	0.0	-5.8	20.2
18	CN(C)c1ccc2c(c1)OC(N)=C(C#N)C2c1cccc(F)c1 (stereo not given)	-13.7	-2.5	u	23.3	-10.1	11.4
19	O=C(Nc1ccc(S(=O)(=O)Nc2ncccn2)cc1)c1cc(=O)c2ccccc2o1	x	x	0.7%	-0.9	x	-13.7
20	O=C(CCC1CCCCC1)NCCN1C2=NC[C@H](Cc3ccc(O)cc3)N2C[C@H]1Cc1ccc(O)cc1	-13.8	-3.2	0.4%	0.5	-23.0	-10.9
21	Cc1cc2nc(-c3ccc(NC(=O)c4ccc(OCC(C)C)cc4)cc3)oc2cc1C	x	x	0.4%	0.1	x	-6.4
22	CC1=CN2C(=N)/C(=C/c3ccc(C)o3)C(=O)N=C2S1	-8.4	-0.4	1.5%	1.0	-8.7	-3.1
23	CC1CCC(NC(=O)c2ccc(-n3cncn3)c([N+](=O)[O-])c2)CC1 (stereo not given)	0.1	-3.7	2.5%	-0.2	26.5	-6.0
24	CCCCCCC1(C)NC(=S)N(c2ccccc2)N1 (stereo not given)	3.7	-8.9	9.7%	-0.7	-15.2	24.2
25	O=C1N[C@@H](Cc2ccccc2)COC(=O)[C@H](Cc2ccc(F)cc2)C/C=C\C[C@H]1CC(=O)N(CCO)Cc1ccccc1	-7.9	-1.2	u	0.4	x	1.7
26	Cc1noc(C)c1NC(=O)N(C)C[C@@H]1Oc2ccc(NS(=O)(=O)c3c(C)noc3C)cc2C(=O)N([C@H](C)CO)C[C@H]1C	1.9	-2.1	0.5%	-0.4	-2.5	-2.1
27	CCN(CC)c1ccc(/C=N/NC(=O)Cc2cccs2)cc1	-21.3	-5.1	4.4%	-0.9	-6.2	16.5
28	O=C(NCCc1ccccc1)C1CCC(Cn2c(=O)c3ccccc3n(Cc3cccnc3)c2=O)CC1 (stereo not given)	-3.7	2.2	3.0%	0.0	23.7	-13.7
29	Cc1cc(C(=O)OCC(=O)NC2CC2)ccc1[N+](=O)[O-]	8.2	-3.2	-1.2%	0.4	-4.2	51.6
30	CCOc1ccccc1C(=O)Nc1ccc(S(=O)(=O)Nc2nccc(C)n2)cc1	-4.3	-1.2	0.9%	-0.3	4.4	1.1

# Following part
item	SMILES	Six1-Eya2 inh	D2 agonist	PINK1 expr mod	TRPML1 agonist	D2 PAM	TRPML1 inh
31	CCOc1ccc2nc(SCC(=O)Nc3ccc(S(=O)(=O)N4CCCC4)cc3)c(C)cc2c1	-0.8	-2.4	3.7%	1.2	-4.1	3.7
32	COc1ccc(S(=O)(=O)N2CCOCC2)cc1NC(=O)c1ccc(SC)cc1OC	-3.4	-2.7	2.3%	0.9	2.5	-2.0
33	CCCCc1cc(=O)oc2cc(C)cc(OCC(=O)NCc3ccccn3)c12	-2.6	7.9	1.0%	1.9	2.4	-22.4
34	c1ccc(-c2noc(C3CCC3)n2)nc1	1.7	-3.7	3.9%	0.5	-18.0	-16.1
35	COc1cc(-c2nnc(COC(=O)CSCC(=O)Nc3cc(C)on3)o2)cc(OC)c1OC	-1.8	-6.4	0.1%	-0.8	1.1	23.3
36	O=C1N=C(N2CCOCC2)S/C1=C/c1ccc(-c2ccc(F)cc2)o1	-7.8	u	1.6%	0.0	6.2	-3.9
37	CC(NC(=O)NNC(=O)c1ccncc1)(C(F)(F)F)C(F)(F)F	31.6	-3.0	0.6%	-0.3	-1.5	-8.5
38	COc1ccccc1NC1CCCCC1NS(=O)(=O)c1ccc(C)cc1 (stereo not given)	-22.7	3.4	1.3%	-1.2	-5.5	-6.0
39	CCCCn1c(-c2nn(C)c(C)c2Cl)n[nH]c1=S	0.0	-6.9	-1.0%	-0.3	-22.8	6.1
40	COc1ccccc1NC(=O)C(C)OC(=O)c1cccc(-n2cnnn2)c1 (stereo not given)	7.3	-4.4	0.0%	1.7	-3.5	8.2
41	O=C(c1csc2c1CCCC2)N1CCN(c2ccc(F)cc2)CC1	-9.0	-0.2	-1.6%	9.7	-10.3	-4.0
42	COC(=O)c1ccc2c(c1)NC1=C(C(=O)CC(C)(C)C1)C(c1ccncc1)N2 (stereo not given)	1.8	-3.7	2.5%	-1.1	-7.9	-0.1
43	CCCN1C(=O)/C(=C2\SC(N3CCCCC3)=NC2=O)c2ccccc21	-17.7	-2.9	-2.8%	1.8	7.6	-2.7
44	O=C(O)c1c(Cl)nc2ccccn12	-0.6	-4.1	-1.1%	-0.3	-6.5	5.0
45	Cc1cc(C(=O)N2CCCC(N3CCN(c4cccc(C(F)(F)F)c4)CC3)C2)no1 (stereo not given)	-6.1	-3.0	0.7%	2.7	-11.9	-4.2
46	CC(C)CN(C(=O)COC(=O)c1ccccn1)c1c(N)n(Cc2ccccc2)c(=O)[nH]c1=O	0.1	-1.9	-0.7%	0.3	-12.0	-3.5
47	O=C(O)CC1=C(O)C(=O)N(c2ccccc2)C1c1ccc(Cl)cc1 (stereo not given)	3.3	1.3	-0.4%	-0.3	-13.7	3.9
48	COc1cc2c(cc1OC)C(=O)N1[C@H]3c4ccccc4OC[C@@H]3[C@H](c3ccccc3)[C@]1(C)C(=O)N2	-1.8	-1.2	0.8%	0.1	-2.5	18.4
49	Cc1cc(C(=O)COC(=O)C2=NN(c3ccccc3)C(=O)CC2)c(C)n1CC(F)(F)F	-1.4	7.9	-1.0%	0.7	1.6	-6.2
50	CC1C=CCC2C(=O)N(c3cccc(C(=O)NCc4ccccc4)c3)C(=O)C12 (stereo not given)	-5.8	4.1	-0.4%	x	-10.0	x
51	O=C(CSc1ccc(Cl)cc1)Nc1nnc(-c2cccc([N+](=O)[O-])c2)s1	4.6	2.6	8.7%	-0.1	-5.9	-0.1
52	C=CCC1NS(=O)(=O)OCC1C(C)C (stereo not given)	3.1	1.6	-0.4%	-1.2	-2.3	u
53	O=C1NC(=O)/C(=C/c2ccccc2Cl)N1	2.2	1.9	1.8%	1.4	-1.3	11.0
54	O=C(O)/C=C/c1coc2ccc(F)cc2c1=O	2.7	0.0	-1.2%	0.4	-14.2	1.5
55	CCCOc1ccccc1-c1nc(SCC(=O)c2ccccc2)n[nH]1	x	x	-0.5%	1.0	x	9.0
56	Cc1ccccc1C(=O)NC(=S)Nc1ccc(S(=O)(=O)N2CCOCC2)cc1	-11.2	-11.2	1.0%	0.9	-15.0	5.1
57	Cc1cc(C)cc(NC(=O)CCn2c(=O)c3cccn3c3ccccc32)c1	-11.7	1.8	3.9%	2.4	-14.7	-9.9
58	Cn1c(CCNC(=O)c2ccco2)nc2cc(NC(=O)c3ccccc3)ccc21	-1.0	-1.3	1.4%	-1.1	3.7	8.8
59	COc1cccc(C2CC(=O)N3CN(c4cccc(Cl)c4C)CSC3=C2C#N)c1OC (stereo not given)	-3.3	7.2	0.3%	-0.1	-3.1	8.6
60	CCCc1nc2ccccc2n1CC(O)COc1ccc(C(=O)OC)cc1 (stereo not given)	x	x	0.5%	2.0	x	4.3

# Going on with the list:
item	SMILES	Six1-Eya2 inh	D2 agonist	PINK1 expr mod	TRPML1 agonist	D2 PAM	TRPML1 inh
61	Cc1ccc2nc3sc(C(=O)NCc4ccco4)c(N)c3cc2c1	-0.1	2.9	u	1.9	u	6.8
62	Clc1ccc(-c2nc3ccccn3c2Nc2ccc3c(c2)OCCO3)s1	x	x	2.5%	4.6	x	-10.9
63	O=C1Nc2ccccc2C12OCCCCO2	3.4	-2.6	-0.2%	0.5	0.8	7.3
64	OCCCN1CNC(=S)NC1	4.5	-1.9	3.0%	0.4	0.3	6.3

# 3 compounds out of the list, ordered by number of heavy atoms, low to high.
item	SMILES	Six1-Eya2 inh	D2 agonist	PINK1 expr mod	TRPML1 agonist	D2 PAM	TRPML1 inh
64	OCCCN1CNC(=S)NC1	4.5	-1.9	3.0%	0.4	0.3	6.3
63	O=C1Nc2ccccc2C12OCCCCO2	3.4	-2.6	-0.2%	0.5	0.8	7.3
60	CCCc1nc2ccccc2n1CC(O)COc1ccc(C(=O)OC)cc1 (stereo not given)	x	x	0.5%	2.0	x	4.3

# Screening results (PubChem BioAssay)
